Screens deposited in PubChem by National Center for Advancing Translational Sciences (NCATS).
hNpr1 antagonist: human Npr1 receptor antagonism. P16066. 76,000 compounds, 1.6% hits. HEK293 hNpr1 GloSensor cGMP, ANP-stimulated luminescence. Potency, µM (doses to about 46.3 µM), for the others: at the highest dose activity change, negative = inhibition, actives largely listed as inhibitors; active = well fitted inhibition curve with a large enough effect; inconclusive = small, poorly fitted or top-dose-only effect; inactive = no such curve, though single readings can be large or run the other way;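 note: nearly all actives have a fitted effect of over 60% in size; nearly all hits also lower the signal before the agonist is added; a reference antagonist and vehicle were the controls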
Target sequence (P16066 whole entry, looked up): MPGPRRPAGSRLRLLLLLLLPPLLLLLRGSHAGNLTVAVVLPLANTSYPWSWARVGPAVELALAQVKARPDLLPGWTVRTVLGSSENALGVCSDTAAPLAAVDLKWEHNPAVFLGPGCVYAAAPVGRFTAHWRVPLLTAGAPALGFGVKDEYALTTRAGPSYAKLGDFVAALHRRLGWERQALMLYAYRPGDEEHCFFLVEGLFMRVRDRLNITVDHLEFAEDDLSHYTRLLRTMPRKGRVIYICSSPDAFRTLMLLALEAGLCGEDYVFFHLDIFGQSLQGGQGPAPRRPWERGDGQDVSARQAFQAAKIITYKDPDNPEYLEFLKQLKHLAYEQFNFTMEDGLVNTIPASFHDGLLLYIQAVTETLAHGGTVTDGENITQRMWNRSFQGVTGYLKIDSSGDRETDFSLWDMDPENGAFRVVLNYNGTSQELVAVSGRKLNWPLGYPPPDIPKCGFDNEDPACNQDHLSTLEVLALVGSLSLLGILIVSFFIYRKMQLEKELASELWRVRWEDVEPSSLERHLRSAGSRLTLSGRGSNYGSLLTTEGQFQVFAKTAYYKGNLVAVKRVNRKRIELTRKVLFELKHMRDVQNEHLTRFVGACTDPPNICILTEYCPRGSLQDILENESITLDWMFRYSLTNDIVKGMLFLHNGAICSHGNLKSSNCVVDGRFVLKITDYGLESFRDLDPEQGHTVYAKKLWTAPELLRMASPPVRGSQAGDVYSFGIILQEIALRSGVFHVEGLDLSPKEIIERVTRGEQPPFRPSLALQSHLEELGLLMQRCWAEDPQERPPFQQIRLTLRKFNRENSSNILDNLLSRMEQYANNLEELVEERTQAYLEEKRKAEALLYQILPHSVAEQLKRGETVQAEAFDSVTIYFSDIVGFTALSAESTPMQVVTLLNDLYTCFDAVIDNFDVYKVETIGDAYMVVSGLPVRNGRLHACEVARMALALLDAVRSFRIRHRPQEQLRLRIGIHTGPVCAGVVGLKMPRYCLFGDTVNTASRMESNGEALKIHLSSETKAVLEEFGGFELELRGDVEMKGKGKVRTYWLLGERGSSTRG
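Compound pre-incubated 30 min at room temperature on GloSensor-loaded HEK293 cells stably carrying hNpr1 and the pGS-40F cGMP biosensor. Stimulation uses hNppA at 0.1 nM final; luminescence is taken at baseline and 20 min post-agonist.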
* marks the source's active call; other numbers are inactive results; ? = inconclusive; [ ] = dose if it differs, or a comment. % is set by controls: 0 for no effect and ±100 for the full control effect; potency is the fitted concentration of half-maximal effect. The list is partial (hit frequency here may not be typical).

#	SMILES	hNpr1 antagonist
1	COc1cc2c(cc1OC)C(CNC(=O)c1ccc(Cl)cc1)N(C(=O)Nc1ccccc1)CC2 (stereo not drawn)	-1%
2	O=C(NCCc1ccccc1)C1CCN(c2cc(C(F)(F)F)ncn2)CC1	-17%
3	O=C1COc2ccc(-c3ccncc3)nc2CN1Cc1ccccc1	-17%[70.6 µM]
4	Cc1cnc(CCNC(=O)Cn2c(=O)oc3ccccc32)n1C1CC1	3%
5	O=C1Cc2c(-c3cccc(C(F)(F)F)c3)n[nH]c2CN1Cc1ccccc1	9%[70.6 µM]
6	CC1(NC(=O)C2CC2)CN(Cc2nc(-c3ccccc3OCc3ccccc3)cs2)C1	-14%[70.6 µM]
7	O=C(NCc1ccc2c(c1)OCO2)C1NCCc2[nH]cnc21 (stereo not drawn)	6%
8	CCCc1nc(C(=O)N(C)CCSc2ccc(C)cc2)cs1	-1%
9	CC1=C(C(=O)OC(C)C)C(c2ccc(Cl)cc2)N2C(CC(=O)N3CCCC3)=CSC2=N1 (stereo not drawn)	?
10	O=C(COc1ccc(F)cc1)NC1CCc2n[nH]c(=O)n2CC1 (stereo not drawn)	0%
11	COc1ccccc1Cc1nc(-c2nnn3c2COC(c2ccc(Cl)cc2)C3)no1 (stereo not drawn)	0%
12	O=C(NCCc1ccncc1)c1ccc(OC2CCN(C(=O)C3CC3)CC2)cc1	12%
13	Cc1ncsc1C(=O)N1CCc2c(n(Cc3cccnc3)n(CCc3ccccc3)c2=O)C1	0%
14	CN1CCCN(C[C@@H]2CN(Cc3cccc(CCN)c3)C[C@@H]2CO)CC1	-2%
15	Cc1ccc(-c2cc3c(=O)n(CCNC(=O)c4ccc[nH]c4=O)ccn3n2)cc1C	-14%
16	C#CCN(C)C(=O)C[C@@H]1CCNC[C@@H]1Cc1cc(COc2ccccc2)on1	4%[70.6 µM]
17	CCOC(=O)C1(Cc2ccc(Cl)cc2)CCN(C(=O)c2ccc(C)s2)CC1	0%
18	Cc1ccccc1NC(=O)N1CCC(CCNC(=O)c2ccccc2)CC1	-3%
19	CC(=O)N1CCN(C(=O)c2ccc3c(c2)NC(C)(CCCCc2ccccc2)CO3)CC1 (stereo not drawn)	-24%[70.6 µM]
20	Cn1cc(CC(=O)N2CCCc3ncc(C(=O)Nc4cccc(F)c4)cc32)c2ccccc21	-13%
21	CC(C)(N)C(=O)N1CCC(n2nccc2NC(=O)c2cccc(F)c2)CC1	5%
22	COc1ccc(-c2cc(N3CCC(NC(=O)Cc4ccccc4OC)CC3)n[nH]2)cc1	-23%
23	O=C(c1ccncc1)N1CCCC(Cc2noc(-c3cnccn3)n2)C1 (stereo not drawn)	10%
24	COc1ccc2c(c1)OCC(CNC(=O)c1ccc(-c3nnn(C)n3)cc1)C2 (stereo not drawn)	-25%
25	Oc1ccc(-c2nc(C3CC3)nc3c2CN(Cc2ccsc2)CC3)cc1	3%
26	CCOc1ccccc1NC(=O)c1c(OC)cc(=O)n2c1CCCC2	0%
27	CN1CCCCC(CC(=O)Nc2ccc3c(c2)OCCO3)C1=O (stereo not drawn)	6%
28	CN1C(=O)CC(C(=O)O)C12CCN(Cc1nc(-c3ccco3)no1)CC2 (stereo not drawn)	6%
29	COc1ccccc1OCCNC(=O)C1CCCN(c2cn[nH]c(=O)c2)C1 (stereo not drawn)	1%
30	Cc1cnc(CC2CCN(C(=O)Cc3cccc(F)c3)C2)n1C(C)C (stereo not drawn)	2%
31	Cc1nc(CCCNC(=O)[C@H]2CNC[C@@H](C(=O)N3CCOCC3)C2)sc1C	4%
32	O=C(NCCCN1CCCC1=O)c1ccc2c(c1)[nH]c(=O)n2C1CCC(O)CC1 (stereo not drawn)	2%
33	Cc1nn(CC(=O)N2CCN(c3ccc(Cl)cc3)CC2)c(=O)c2nc(C(C)C)sc12	-18%
34	COCc1nc(C2CC(NC(=O)c3c(F)ccc(C)c3Cl)C2)cc(=O)[nH]1 (stereo not drawn)	4%
35	CN(CC1CCCO1)c1ccc(C(=O)N2CCC(CCn3cccn3)CC2)cn1 (stereo not drawn)	-2%
36	CCc1c(C)nc(C)nc1N1CCN(C)C2(CCC(=O)N(CC)CC2)C1 (stereo not drawn)	0%
37	O=C(c1ccc2c(c1)OCO2)N1CCN2C(=O)N(Cc3ccccc3)C(=O)[C@H]2C1	-2%[70.6 µM]
38	CN(Cc1cc2n(n1)CCCNC2)Cc1nc(-c2ccccc2)cs1	6%
39	COCCN(C)C[C@@H]1CN(C(=O)c2cc3ccccc3n(C)c2=O)C[C@@H]1CO	5%
40	Cc1cn2nc(C(=O)NCc3ccccc3Cl)cc2c(=O)[nH]1	19%
41	O=C1NC2(CCCN(Cc3cccc4ccccc34)C2)Oc2ccccc21 (stereo not drawn)	-3%
42	Cc1nc(-c2ccc(F)cc2)n(Cc2nc(-c3ccc(OC(C)C)cc3)oc2C)c(=O)c1CCO	-6%
43	O=C1CCCN1CC(=O)N1CCC(C2CCN(Cc3cccc(F)c3F)CC2)C1 (stereo not drawn)	6%
44	Cc1ccc(-c2cc3c(=O)n(CCNC(=O)c4cc(F)ccc4F)ccn3n2)c(C)c1	-20%
45	Cc1noc(C)c1S(=O)(=O)N1CCCCC(NC(=O)c2c[nH]c(=O)cn2)C1 (stereo not drawn)	1%
46	O=C(NCc1c[nH]c2ncccc12)c1cccc2[nH]ccc12	5%[70.6 µM]
47	OCc1ccc(-c2ccc3nnc(-c4ccccn4)n3n2)cc1	0%[70.6 µM]
48	COC[C@H]1C[C@@H](NC(=O)c2ccc3c(c2)OCO3)[C@H](O)[C@@H]1O	-23%[70.6 µM]

Compounds 37 to 42 of the list above:
#	SMILES	hNpr1 antagonist
37	O=C(c1ccc2c(c1)OCO2)N1CCN2C(=O)N(Cc3ccccc3)C(=O)[C@H]2C1	-2%[70.6 µM]
38	CN(Cc1cc2n(n1)CCCNC2)Cc1nc(-c2ccccc2)cs1	6%
39	COCCN(C)C[C@@H]1CN(C(=O)c2cc3ccccc3n(C)c2=O)C[C@@H]1CO	5%
40	Cc1cn2nc(C(=O)NCc3ccccc3Cl)cc2c(=O)[nH]1	19%
41	O=C1NC2(CCCN(Cc3cccc4ccccc34)C2)Oc2ccccc21 (stereo not drawn)	-3%
42	Cc1nc(-c2ccc(F)cc2)n(Cc2nc(-c3ccc(OC(C)C)cc3)oc2C)c(=O)c1CCO	-6%

Next section:
#	SMILES	hNpr1 antagonist
49	COCCC1(NC(=O)C2CC2)CCN(C(=O)c2ccccn2)CC1	3%
50	COC(=O)c1ccc2nc(CO[C@H]3CN(Cc4ccccc4C)C[C@H]3F)[nH]c2c1	-1%[70.6 µM]
51	COc1cc(OC)cc(C(=O)Nc2ccc3c(c2)CN(Cc2ccc(F)cc2)C(=O)C(C)O3)c1 (stereo not drawn)	-20%
52	CCOC(=O)C1CCN(C(=O)C2CCCN(c3cnn(C)c(=O)c3)C2)CC1 (stereo not drawn)	-6%
53	CN(Cc1cccc2ccccc12)C1CCCc2ccccc21 (stereo not drawn)	24%[70.6 µM]
54	COc1cccc(CC(=O)NC2CCN(C(=O)c3cc4c(=O)[nH]c(C)cn4n3)CC2)c1	17%
55	O=C(CN1CCCC1=O)N1CCC2(CC1)NCCc1c2[nH]c2ccccc12	0%
56	O=C(CCC1CCCC1)N1CC2CC(C1)[C@H]1CCCC(=O)N1C2 (stereo partly drawn)	0%
57	COc1ccc(OC)c(CN2CCNc3cnc(Nc4ccccc4)cc3C2)c1	-17%[70.6 µM]
58	O=C(N[C@@H]1CN(Cc2cccnc2)C[C@H]1CO)c1cccnc1	3%
59	O=C1CCCCC(C(=O)NCCCn2cccn2)N1 (stereo not drawn)	3%
60	CN1CCN(c2nc3c(c(=O)[nH]2)CCN(Cc2cccc(Br)c2)CC3)CC1	-1%
61	CNC(=O)[C@@H]1CN(C(=O)c2cccnc2C)C[C@H]1COC	-1%
62	COc1ccc(CCN2C(=O)O[C@@H]3CN(C(=O)CN)C[C@@H]32)cc1	6%
63	COCCOCC(=O)NC1CCN(C(=O)N2CC3CC(C2)[C@H]2CCCC(=O)N2C3)CC1 (stereo partly drawn)	1%
64	Cc1ccc(CN2CCC(Cc3nnc(CO)n3-c3ccccc3)CC2)o1	-1%
65	CCn1ccc(C(=O)N2CCCC(c3nnnn3C)C2)n1 (stereo not drawn)	10%
66	Cc1ncc(S(C)(=O)=O)c(NCCn2nc(C)nc2C)n1	2%
67	CCN1CC(CN(C)C(=O)c2cc(Cn3c(C)nc4ccccc43)[nH]n2)CC1=O (stereo not drawn)	3%
68	CC1(c2noc(-c3ccccc3)n2)CCN(C(=O)C2CCN(C(=O)c3ccc(=O)[nH]c3)CC2)CC1	-1%
69	Cn1cnc(S(=O)(=O)N2C[C@@H](F)C[C@H]2C(=O)N2CCCCC2)c1	-4%
70	Cc1ccc(-c2ncc(C(=O)N3CCC(Nc4ncccn4)CC3)c(=O)[nH]2)cc1	0%
71	O=C1CCN(S(=O)(=O)c2cccc(F)c2)CCCC(c2nc(-c3cccnc3)no2)CCN1 (stereo not drawn)	1%
72	O=C(N[C@@H]1CN(C(=O)Nc2ccccc2)CCC[C@H]1O)c1ccc(OCCN2CCCC2)cc1	0%
73	CCOc1ccccc1CN1CCC2(CCN([S+](=O)([O-])c3cccc(C(F)(F)F)c3)CC2)Oc2ccccc21	13%
74	Cc1cccc(OCCc2noc(C3CCCCN3)n2)c1 (stereo not drawn)	-11%
75	COc1ccc(NC2=N[C@H]3[C@@H](O)[C@H](O)C[C@H](C(=O)NCc4ccccc4OC)[C@H]3S2)cc1	0%
76	CN1CCOC(CNc2ncc(C(C)(C)C(=O)O)c(N3CCOCC3)n2)C1 (stereo not drawn)	2%
77	COC[C@@H]1CN(c2cnccn2)C[C@H]1C(=O)NCCc1cccnc1	6%
78	COc1ccc(C(=O)N2CCC(N3C(=O)[C@H](OC)[C@@H]3c3ccncc3)CC2)c(OC)c1	7%
79	CN(C)c1ccc(CN2CCCC3(C2)NC(=O)c2ccccc2O3)cc1 (stereo not drawn)	2%
80	CCOC(=O)N1CCC(NC(=O)c2ccccc2C2CCNC2)CC1 (stereo not drawn)	-8%
81	COc1ccc(C(=O)N2CCC(c3nn(Cc4ccccc4)c(=O)[nH]3)CC2)cc1	-22%
82	COc1ccc(C(=O)NC[C@H]2Cn3c(-c4ccc(F)cc4)cnc3CO2)cc1	?
83	Cc1ccnc(NC(=O)C2CC(=O)N(c3n[nH]c4cc(Br)ccc34)C2)c1 (stereo not drawn)	-26%
84	CC(=O)N1C[C@@H]2OCC(=O)N(c3ccccc3)[C@@H]2C1	11%[70.6 µM]
85	Cc1ccc(C2c3cc(OCc4nc(C(=O)NC(C)C)co4)ccc3CCN2C(=O)C2CC2)cc1 (stereo not drawn)	-5%
86	COc1ccc(S(=O)(=O)N2C[C@@H]3C[C@H](C2)c2c(NC(=O)c4ccccc4)ccc(=O)n2C3)cc1	4%
87	CNC(=O)N1CCC(C2CCN(S(=O)(=O)c3ccc4c(c3)CCC4)C2)CC1 (stereo not drawn)	0%
88	CC(C)CCCC1CN(C(=O)CCN2CCCCCC2=O)CCO1 (stereo not drawn)	0%
89	CC(C)(C)C(=O)N[C@H]1C[C@@H](Cc2cc(-c3ccccc3)on2)C1(C)C	?
90	O=C(Nc1ccc([C@@H](O)[C@H]2COCC(=O)N2CCCc2ccccc2)cc1)C1CC1	-7%[70.6 µM]
91	CO[C@H]1[C@H](NC(=O)Cc2ccc3c(c2)OCO3)c2ccccc2C12CCNCC2	1%
92	COc1cccc(CC(=O)Nc2ccc3c(c2)CN(Cc2ccccc2OC)C(=O)C(C)O3)c1 (stereo not drawn)	-3%
93	O=C(O)Cn1ccc2cc(OCC3CCN(C(=O)C4CCCC4)CC3)cnc21	0%[70.6 µM]
94	O=C(CC1CCCC1)NCCc1noc(Cc2ccccc2)n1	6%
95	COc1ccc(C(=O)N2CCCC(c3[nH]ccc3C(N)=O)C2)cc1F (stereo not drawn)	6%
96	C[S+](=O)([O-])c1cccc(-c2cnc3[nH]cc(CC(N)=O)c3c2)c1	2%[70.6 µM]

Part of the list above, with each value named.
[88] CC(C)CCCC1CN(C(=O)CCN2CCCCCC2=O)CCO1 (stereo not drawn)
  hNpr1 antagonist: 0%

[89] CC(C)(C)C(=O)N[C@H]1C[C@@H](Cc2cc(-c3ccccc3)on2)C1(C)C
  hNpr1 antagonist: ?

New compounds follow.
#	SMILES	hNpr1 antagonist
97	COCCc1noc(-c2ccccc2OC2CN(C(=O)Cc3cccc(C)c3)C2)n1	-2%
98	CCCS(=O)(=O)N1CCC2(CCC2OC)CC1 (stereo not drawn)	4%
99	COC(=O)CCC(=O)N1CCCC(N2CCN(c3cccc(Cl)c3)CC2)C1 (stereo not drawn)	-3%
100	CC1(C)[C@H]2CC[C@@H](CNC(=O)c3ccc(Cl)nc3)[C@@H]1C2	-7%[70.6 µM]
101	Cn1cccc1CN[C@H]1[C@H](O)[C@@H](N2CCCC2)[C@@H]2OC[C@H]1O2	-4%[70.6 µM]
102	COc1ccccc1C(=O)Nc1ccc([C@@H](O)[C@H]2COCC(=O)N2Cc2ccc(F)cc2)cc1	0%
103	O=C(Nc1ccccc1)O[C@@H]1CO[C@H]2[C@@H]1OC[C@@H]2n1nnnc1Sc1ccccc1	-28%[70.6 µM]
104	O=C(C[C@@H]1C[C@H]2O[C@H](CNC3CCCC3)[C@@H](O)[C@H]2O1)N1CCC(F)(F)C1	0%[70.6 µM]
105	COCC1CN(C(C)=O)CC12CCN(C(=O)CC1CCCCC1)CC2 (stereo not drawn)	1%
106	Cc1ccc2[nH]c(=O)c(CCC(=O)NCCN3CCc4ccccc4C3)cc2c1	2%
